StopGo reporter – High Throughput Screening for Foot and Mouth Disease Virus Antivirals; human cells with a luciferase reporter of 2A StopGo recoding; control for the full effect not named in the record; Potency, µM (doses to about 57.9 µM), inactives show at the top dose signal change, negative = less light; hit rate 1.2% among 410,000; active = well fitted falling curve with a large enough effect; inconclusive = small, poorly fitted or top-dose-only effect; inactive = no such curve, though single readings can be large or run the other way; tested in HEK293T cells; further: nearly all actives have a fitted effect of over 45% in size; luciferase light after 4 h
RE007 growth inh – qHTS Assay for Inhibitors of the HIV-1 protein Vpr; S. pombe RE007 Vpr strain, BacTiter-Glo ATP luminescence, 24 h; control for the full effect not named in the record; Potency, µM (titrated, usually from 92.2 µM), for inactives: at the highest dose activity change, negative = less growth; hit rate 0.21% among 360,000; active = well fitted falling curve with a large enough effect; inconclusive = small, poorly fitted or top-dose-only effect; inactive = no such curve, though single readings can be large or run the other way;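 further: nearly all actives have a fitted effect of over 50% in size; the assay follows cell death caused by Vpr and the record does not say whether a fall means rescue or toxicity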
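Fission yeast strain RE007, carrying one chromosomally integrated HIV-1 vpr copy, was seeded at OD 0.01 in PMG+AL medium with 23 nL pinned compound. After 24 h at 30 °C and 99% humidity, viability was read by BacTiter-Glo luminescence.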
Numbers without * were called inactive; ? = inconclusive; [ ] = another dose, or the depositor's remark. On the % scale 0 is the no-effect control and ±100 the full control effect; potency means the concentration at half of the fitted maximal effect. Not all compounds are listed; the hit share may differ from the screen's.

SMILES | StopGo reporter | RE007 growth inh
O=C(Nc1ccc(Cl)c(C(F)(F)F)c1)C1Cc2c(-c3ccccc3)ccnc2O1 (stereo not drawn) | -27.0% | 3.5%
CC(Oc1ccc(F)cc1)C(=O)Nc1cc(S(=O)(=O)N2CCCCC2)ccc1N1CCN(C)CC1 (stereo not drawn) | -14.1% | -1.6%
COc1ncc(-c2ccc(N3C(c4ccsc4)=Cc4ccccc4C3CC(C)=O)cc2)cn1 (stereo not drawn) | -17.4% | -4.8%
Cc1cc(F)cc(-c2cc(C(=O)NCc3ccc(C(F)(F)F)cc3)[nH]n2)c1 | -16.0% | -5.2%
OC(c1ccc(Cl)cc1)c1ncc(-c2cccc(F)c2)[nH]1 (stereo not drawn) | 49.8%[activator] | 1.3%
CCOC(=O)[C@]12CCCC=C1N(Cc1ccccc1)C(=O)[C@H](CC(=O)NCC13CC4CC(CC(C4)C1)C3)C2 | -17.8% | 18.8%
NS(=O)(=O)c1cccc(NC(=O)CSc2nnc(NC3CC3)s2)c1 | -11.4% | 6.4%
O=C(NC1CCCCC1)c1cccc(NC(=O)c2ccccc2Cl)c1 | -27.2% | -12.5%
CC(=O)Nc1ccc(NC(=O)c2cc(-c3ccc(F)cc3C)n[nH]2)cc1 | 41.5%[activator] | -2.4%
Cc1ccc2nc(CN(C)C(=O)[C@H]3O[C@@H](n4ccc(=O)[nH]c4=O)[C@H](O)[C@@H]3O)[nH]c2c1 | -20.8% | 11.1%
O=C1c2cccc(-c3ccc(C(F)(F)F)cc3)c2C2CC=CCN12 (stereo not drawn) | ? | 6.9%
O=C(NCc1ccccc1)c1cc(C2CCCCN2S(=O)(=O)Cc2ccccc2)on1 (stereo not drawn) | 14.6% | 2.9%
CC(=O)Nc1ccc(-c2ccnc3c2CC(C)(C(=O)NCCc2ccccc2)O3)cc1 (stereo not drawn) | -14.1% | 15.6%
O=C(c1cc(C2CCCCN2S(=O)(=O)c2cccs2)on1)N1CCOCC1 (stereo not drawn) | -8.4% | 5.2%
COc1ccc(C(N)c2csc(Nc3cc(Oc4ccccc4)ncn3)n2)cc1 (stereo not drawn) | -3.9% | -0.6%
CCCNC(=O)C1(C)CCCN(Cc2c(C)nn(-c3ccccc3)c2C)C1 (stereo not drawn) | -20.8% | 1.6%
CCOc1ccc(S(=O)(=O)Nc2ccc(C(=O)N(CC)CC(=O)NCc3cccs3)cc2)cc1 | -13.0% | 22.2%
COCCNC(=O)C1(C)CCN(C(=O)c2ccc(C(F)(F)F)nc2C)C1 (stereo not drawn) | 3.8% | 3.7%
CCO[C@H]1OC(C(=O)O)=C[C@@H](c2ccccc2)[C@@H]1CCCO | -19.3% | -16.2%
COCC(=O)N(C)C[C@@H]1Oc2cc(-c3ccc(F)cc3)ccc2S(=O)(=O)N([C@H](C)CO)C[C@H]1C | -0.4% | 42.5%

(listing goes on)
SMILES | StopGo reporter | RE007 growth inh
COc1cc(OC)cc(C2=Cc3ccccc3C(CC(C)=O)N2c2ccc(C#CC3(O)CCCCC3)cc2)c1 (stereo not drawn) | -17.7% | 11.6%
C[C@H](CO)N1C[C@H](C)[C@@H](CN(C)S(=O)(=O)c2cccc(F)c2)OCc2cn(nn2)CCCC1=O | -4.0% | 4.7%
O=C1C=C(c2ccc(F)nc2)CCC1 | 24.4% | 3.3%
CCCCN1C[C@H](C)[C@@H](CC(=O)Nc2ccccc2)C1=O | 0.0% | 0.9%
O=C(Nc1ccc(N2CCOCC2)cc1)C1CCN(S(=O)(=O)c2cccc(C(F)(F)F)c2)CC1 | ? | -18.1%
Nc1c(-c2ccc(F)c(F)c2)nc2ncccn12 | -6.5% | -17.7%
FC(F)(F)c1ccccc1Cc1c(-c2ccc(Cl)cc2)nc2ccc(Cl)cn12 | 48.7%[activator] | -21.1%
COc1ccccc1N1CC(C(=O)OC(C)C(=O)Nc2ccc(F)cc2)CC1=O (stereo not drawn) | -1.6% | 21.8%
O=C(NCc1ccncc1)[C@@H]1CCCN1C(=O)[C@@H]1CCCN1C(=O)c1ccccc1Cl | ? | -2.9%
CSc1ncnc2c1ncn2CCCNCC(C)c1ccccc1 (stereo not drawn) | -21.1% | -29.2%
O=C(Nc1ccc2c(c1)OCCO2)C(c1ccc(C(F)(F)F)cc1)n1c(=O)c(-c2cc3ccccc3[nH]2)nc2ccccc21 (stereo not drawn) | -2.8% | -10.6%
C=CCOc1cccn2c(N(C=O)Cc3ccccc3)c(CC)nc12 | -15.1% | -2.8%[18.4 µM]
O=C(/C=C/[C@H]1O[C@@H](n2cnc3c(NC(=O)c4ccccc4)ncnc32)[C@H](O)[C@@H]1O)NCC1CCCCC1 | -15.6% | 2.9%
CC(=O)N1C[C@H]2CON(C)[C@H]2C[C@H]1c1cccc(-c2cc(Cl)cc(Cl)c2)c1 | ? | 1.1%
COCCNC(=S)N1CCC2CC1c1cc(-c3ccc4c(c3)OCO4)ccc12 (stereo not drawn) | -10.3% | 7.7%
COc1ccccc1-c1ccc2c(c1)O[C@@H](CN(C)C(=O)c1ccncc1)[C@H](C)CN([C@@H](C)CO)S2(=O)=O | 3.1% | -3.4%
Oc1ccc(C[C@@H](CN2CCCC2CN2C(=S)NC[C@@H]2Cc2ccccc2)N2C[C@H](Cc3ccccc3)N(CC3CCCCC3)C2=S)cc1 (stereo partly drawn) | -12.8% | -13.8%
Cc1ccccc1OS(=O)(=O)c1cccc([N+](=O)[O-])c1 | -3.8% | -1.8%
Nc1ccccc1SC(CC(=O)c1ccccc1)c1ccccc1 (stereo not drawn) | 28.6% | -28.3%
COc1ccc(CN2Cc3cc(N4CCCCC4)ccc3-n3nncc3C2)cc1 | -4.8% | ?

Other structures.
SMILES | StopGo reporter | RE007 growth inh
COC(=O)C[C@@H]1CC[C@H](NC(=O)CC2CC2)[C@@H](CO)O1 | -20.9% | 2.6%
O=C(Nc1ccc2nc([C@H]3C[C@H](O)[C@@H](CO)O3)[nH]c2c1)NC(c1ccccc1)c1ccccc1 | -6.1% | 4.6%[18.4 µM]
CCN1C[C@@H]2[C@@H]3C(=O)N(Cc4ccccc4)C(=O)[C@@H]3[C@](C)(C1=O)N2C(=O)c1ccc(Cl)c(Cl)c1 | -28.5% | 2.2%
CC1(C(=O)NS(=O)(=O)c2cccc(F)c2)CCN1C(=O)Cc1ccc(-c2ccccc2)cc1 (stereo not drawn) | -4.3% | 22.3%
C(=C\c1ccccc1)/CN1CCN(C(c2ccnc3ccccc23)c2nnnn2C2CCCCC2)CC1 (stereo not drawn) | -13.4% | -14.1%
O=C(Cn1cc(-c2ccccn2)nn1)NS(=O)(=O)c1cccc(OC(F)F)c1 | -22.8% | -1.8%
O=C(/C=C/[C@H]1O[C@@H](n2cnc3c(NC(=O)c4ccccc4)ncnc32)[C@H](O)[C@@H]1O)NCc1ccccc1 | -13.8% | 0.1%
C=CCN1C(=O)/C(=C/N(C)C)S/C1=N\S(=O)(=O)c1cccs1 | -15.0% | 3.0%
CCCN(C(=O)CSc1nnc(-c2ccc3c(c2)OCO3)o1)C1CCS(=O)(=O)C1 (stereo not drawn) | -15.7% | -3.5%
COc1ccc([C@H]2N[C@]3(CCCN(Cc4ccco4)C3=O)[C@H]3C(=O)N(C)C(=O)[C@@H]23)cc1 | 0.0% | 2.1%
CC(C)Cn1c(SCC(=O)NC2CC2)nc2ccccc21 | -23.2% | -13.3%
O=S1(=O)CCOC[C@H](Cc2ccccc2)N1Cc1ccccc1Br | -26.3% | 3.3%
CCOC(=O)C1=C(C)N(CCCC(=O)O)C(=O)NC1c1ccccc1OS(=O)(=O)c1ccc([N+](=O)[O-])cc1 (stereo not drawn) | -0.9% | -5.3%
COc1ccccc1CC1CC(=O)N(c2ccc([N+](=O)[O-])cc2)C1=O (stereo not drawn) | -29.8% | -11.2%
O=C(COc1ccccc1CNC[C@H]1O[C@@H](n2ccc(=O)[nH]c2=O)[C@H](O)[C@@H]1O)N1CCCCC1 | -11.1% | -13.1%
COc1ccc(C2CC(=O)C=C3c4ccc(OC)cc4CCC32)cc1 (stereo not drawn) | 0.0% | 11.5%
COc1cccc(S(=O)(=O)N(C)C[C@H]2OCc3cnnn3CCCC(=O)N([C@H](C)CO)C[C@H]2C)c1 | -11.0% | 5.6%
O=C1NC[C@@H](CCCCN2C[C@H](Cc3ccccc3)N(CC3CCCCC3)C(=O)C2=O)N(CCc2ccccc2)C1=O | 40.1%[activator] | 3.3%
COc1cc(CNc2ncnc3c2ncn3[C@H]2CN(Cc3ccccc3)C[C@@H](COC(C)=O)O2)cc(OC)c1OC | -17.3% | -12.3%
CCC/C=C/c1ccc(CN2C(CC(C)C)C(=O)N(Cc3cn(CCC4OCCCO4)nn3)CCS2(=O)=O)cc1 (stereo not drawn) | ? | -6.1%

Further structures:
| canonical_smiles | StopGo reporter | RE007 growth inh |
| --- | --- | --- |
| N/C(Cc1ccc(Cl)cc1)=N\OC(=O)CCc1ccccc1 | -20.2% | -20.5% |
| O=C(Nc1ccc(F)c(Cl)c1)c1ccc2sc([C@@H]3O[C@H](CO)[C@H](O)[C@H](O)[C@H]3O)nc2c1 | -1.5% | 4.4%[18.4 µM] |
| COc1ccc(OC)c(NC(=O)C2(C)CCN2C(=O)Cc2ccccc2)c1 (stereo not drawn) | -21.9% | -12.7% |
| O=C(Nc1ccc2c(c1)OCCO2)C(c1ccccc1)n1c(=O)c(-c2ccco2)nc2ccccc21 (stereo not drawn) | 12.5% | 4.0% |
| CCN(CC)c1ncnc2c1ncn2[C@H]1CN(Cc2ccc(F)cc2)C[C@@H](CO)O1 | -10.1% | 11.8% |
| CCOC(=O)C1=CCC(c2cccc(C)c2)N(S(=O)(=O)c2ccc(C)cc2)C1 (stereo not drawn) | -19.1% | 6.5% |
| CCCc1nc2ccc(C)cn2c1Cc1ccccc1C(F)(F)F | -16.9% | ? |
| CC1(C)OC(=O)C2=C(CC(CCc3ccccc3)OC2c2ccccc2)O1 (stereo not drawn) | ? | -3.1% |

Additional results
| canonical_smiles | StopGo reporter | RE007 growth inh |
| --- | --- | --- |
| CCCCCCCCCc1conc1C(=O)/C=C/c1oc2c(c1C)CCC(C)C2 (stereo not drawn) | -17.6% | -26.1% |
| CC(=O)Nc1ccc(-c2ccnc3c2CC(C)(C(=O)Nc2ccc(C(C)C)cc2)O3)cc1 (stereo not drawn) | -20.3% | -9.7%[18.4 µM] |
| O=C1c2ccccc2S(=O)(=O)c2cc(C(=O)N3CCC(C(=O)N4CCCCC4)CC3)ccc21 | -4.4% | 6.2% |
| O=C(CSc1nc(C2CC2)nc2ccccc12)N1CCc2ccccc21 | -28.6% | 7.2% |
| O=C1OC(c2ccccc2)(c2ccccc2)c2ccsc21 | -16.4% | -22.6% |
| CCc1nc2ccc(C(=O)Nc3ccc4c(c3)OCC(=O)N4)cn2c1N(C)Cc1nccn1C | -9.8% | -7.2% |
| C[C@H]1CN([C@@H](C)CO)C(=O)CCCn2cc(nn2)CO[C@@H]1CN(C)S(C)(=O)=O | -11.7% | 21.5% |
| CCCN(C(=O)COC(=O)CCC(=O)c1ccccc1)c1c(N)n(Cc2ccccc2)c(=O)[nH]c1=O | -9.0% | -9.0% |

Compound profiles (already shown).
`CCc1nc2ccc(C(=O)Nc3ccc4c(c3)OCC(=O)N4)cn2c1N(C)Cc1nccn1C` is entered as StopGo reporter = -9.8%; RE007 growth inh = -7.2%
`C[C@H]1CN([C@@H](C)CO)C(=O)CCCn2cc(nn2)CO[C@@H]1CN(C)S(C)(=O)=O` is entered as StopGo reporter = -11.7%; RE007 growth inh = 21.5%

Other compounds
| canonical_smiles | StopGo reporter | RE007 growth inh |
| --- | --- | --- |
| O=C1c2ccccc2C(c2nnnn2-c2ccc3c(c2)OCCO3)N1Cc1ccco1 (stereo not drawn) | -11.9% | 50.0% |
| CC(C)CSCC1OC(n2cnc3c(N)nccc32)C(O)C1O (stereo not drawn) | ? | ? |
| COc1ccc(-c2noc3c2-c2nc(-c4ccc(C)cc4)sc2CC3)cc1 | -23.6% | 3.2% |
| CN1CCN(C(=O)C[C@H]2CC[C@H]3[C@@H](COC[C@@H](O)CN3C(=O)C3CCCC3)O2)CC1 | 14.4% | 6.4% |
| CCC[C@H]1CN(c2ccc(Br)cc2)C(=O)[C@@H]1CC(=O)Nc1ccccc1 | 21.0% | -10.5% |
| CC(C)[C@H](N)C(=O)N[C@H]1CCC2C3CC=C4C[C@@H](O)CC[C@]4(C)C3CC[C@@]21C (stereo partly drawn) | ? | 9.1% |
| CCOC(=O)[C@]12CCC=C1N(Cc1cccc3ccccc13)C(=O)[C@H](CC(=O)NCCCN1CCCC1=O)C2 | -10.6% | 0.7% |
| O=C(OCc1cn([C@H]2CN(C(=O)c3cccs3)[C@@H](c3ccc(Cl)cc3)C[C@@H]2O)nn1)c1ccccc1 | -23.9% | 7.1% |

Three entries from above, with each value named.
CC(C)[C@H](N)C(=O)N[C@H]1CCC2C3CC=C4C[C@@H](O)CC[C@]4(C)C3CC[C@@]21C (stereo partly drawn)
  StopGo reporter = ?
  RE007 growth inh = 9.1%

COc1ccc(-c2noc3c2-c2nc(-c4ccc(C)cc4)sc2CC3)cc1
  StopGo reporter = -23.6%
  RE007 growth inh = 3.2%

CCOC(=O)[C@]12CCC=C1N(Cc1cccc3ccccc13)C(=O)[C@H](CC(=O)NCCCN1CCCC1=O)C2
  StopGo reporter = -10.6%
  RE007 growth inh = 0.7%
